2A StopGo: FMDV 2A StopGo reporter, luciferase signal; human cells with a luciferase reporter of 2A StopGo recoding; control for the full effect not named in the record; Potency, µM (top dose mostly 57.9 µM), for the others: at the highest dose signal change, negative = less light; actives 1.2% (n = 410,000); active = well fitted falling curve with a large enough effect; inconclusive = small, poorly fitted or top-dose-only effect; inactive = no such curve, though single readings can be large or run the other way; tested in HEK293T cells; also: % is scaled to controls: 0 for no effect and ±100 for the full control effect; nearly all actives have a fitted effect of over 45% in size; luciferase light after 4 h
LASV entry inh: blocks Lassa virus binding to or entry into cells; Potency, µM (highest dose often 37.9 µM), for inactives: top-dose activity change, negative = inhibition, hits mostly inhibitors; AID 540256; Lassa virus pseudotype entry inhibition, cell reporter; control for the full effect not named in the record; actives 1.2% (n = 300,000); active means well fitted inhibition curve with a large enough effect; inconclusive means small, poorly fitted or top-dose-only effect, or effect the other way; inactive means flat fitted curve, though single readings scatter; tested in HEK293 cells; also: % is scaled to controls: 0 for no effect and ±100 for the full control effect; nearly all actives have a fitted effect of over 50% in size; luciferase read-out
RE007 growth inh: less growth of the S. pombe RE007 Vpr strain | S. pombe RE007 Vpr strain, BacTiter-Glo ATP luminescence, 24 h; control for the full effect not named in the record | Potency, µM (top dose mostly 92.2 µM), inactives show at the top dose activity change, negative = less growth | actives 0.21% (n = 360,000); active = well fitted falling curve with a large enough effect; inconclusive = small, poorly fitted or top-dose-only effect; inactive = no such curve, though single readings can be large or run the other way;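 also: % is scaled to controls: 0 for no effect and ±100 for the full control effect; nearly all actives have a fitted effect of over 50% in size; the assay follows cell death caused by Vpr and the record does not say whether a fall means rescue or toxicity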
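Fission yeast strain RE007, carrying one chromosomally integrated HIV-1 vpr copy, was seeded at OD 0.01 in PMG+AL medium with 23 nL pinned compound. After 24 h at 30 °C and 99% humidity, viability was read by BacTiter-Glo luminescence.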
SARS PLP yeast: inhibitors of SARS-CoV papain-like protease in yeast. S. cerevisiae expressing SARS-CoV PLpro, growth rescue; control for the full effect not named in the record. Potency, µM (doses to about 32.9 µM), for inactives: at the top dose activity, positive = growth rescue. actives 0.19% (n = 330,000). AID 485353; active means well fitted rising curve with a large enough effect; inconclusive means small, poorly fitted or top-dose-only effect; inactive means no such curve, though single readings can be large or run the other way; also: 0% is about no effect; nearly all actives have a fitted effect of over 55% in size; growth read by luminescence after 48 h
NS1 inh: blocks influenza NS1 protein function | S. cerevisiae slowed by influenza A NS1, growth recovery by OD600 | Potency, µM (top dose mostly 46.1 µM), inactives show top-dose activity, positive = more growth | actives 0.4% (n = 270,000) | AID 2326; active means well fitted rising curve with a large enough effect; inconclusive means small, poorly fitted or top-dose-only effect; inactive means no such curve, though single readings can be large or run the other way; also: nearly all actives have a fitted effect of over 50% in size
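Read-out: OD600 growth recovery of NS1-expressing budding yeast. Cells grown overnight at 30C in -URA glucose medium, washed, resuspended and diluted 1:100 in 2% galactose assay medium, pH 6.0. Same strain lacking NS1 served as positive control.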
Cruzain noTriton: blocks cruzain activity in detergent-free assay; AID 1476; Potency, µM, without a hit: max response, negative = inhibition, actives largely listed as inhibitors; actives 2.3% (n = 200,000); purified cruzain, Z-FR-AMC fluorescence, no detergent;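 also: plate controls were enzyme without inhibitor for no effect and buffer without enzyme for full effect; nearly all actives have a fitted effect of over 40% in size; top concentration of the series not given in the record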
Target sequence (P25779 123-467 limits assumed): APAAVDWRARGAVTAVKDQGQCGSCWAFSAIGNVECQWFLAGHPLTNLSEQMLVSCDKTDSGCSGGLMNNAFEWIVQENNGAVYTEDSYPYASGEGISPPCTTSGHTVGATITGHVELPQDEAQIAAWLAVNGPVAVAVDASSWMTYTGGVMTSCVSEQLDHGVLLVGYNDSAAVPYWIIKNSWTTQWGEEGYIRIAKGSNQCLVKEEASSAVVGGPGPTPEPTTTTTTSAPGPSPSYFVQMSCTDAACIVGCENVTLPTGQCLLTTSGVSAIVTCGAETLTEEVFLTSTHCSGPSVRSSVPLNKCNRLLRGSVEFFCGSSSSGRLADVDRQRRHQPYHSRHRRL
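Purified cruzain at 1.5 nM, pre-incubated 15 min with compound at room temperature in 100 mM sodium acetate pH 5.5, 5 mM DTT, 0.00005% Triton X-100. Reaction started with 2 uM Z-FR-AMC; AMC fluorescence increase over 60 s gives rate.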
Cruzain Triton: cruzain (T. cruzi) inhibition with detergent. P25779. purified cruzain, Z-FR-AMC fluorescence, 0.01% Triton. Potency, µM, for inactives: max response, negative = inhibition, most hits filed as inhibitors. actives 0.43% (n = 200,000). AID 1478;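 also: plate controls were neutral wells for no effect and buffer without enzyme for full effect; nearly all actives have a fitted effect of over 40% in size; top concentration of the series not given in the record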
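Cruzain (1.5 nM) preincubated 15 min at RT with compound in 100 mM sodium acetate pH 5.5, 5 mM DTT, 0.01% Triton X-100. Reaction started with 2 uM Z-FR-AMC; AMC fluorescence (ex 360/em 450 nm) change over 60 s gave rate.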
Marburg entry inh: inhibitors of Marburg virus binding or cell entry; Marburg virus pseudotyped entry inhibition, cell reporter; control for the full effect not named in the record; about a third of the inactives were read at about 46 µM; Potency, µM (titrated, usually from 37.8 µM), without a hit: at the highest dose activity change, negative = inhibition, hits mostly inhibitors; actives 1.8% (n = 300,000); active = well fitted inhibition curve with a large enough effect; inconclusive = small, poorly fitted or top-dose-only effect, or effect the other way; inactive = flat fitted curve, though single readings scatter; tested in HEK293 cells; about a fifth of its hits are not listed in these tables; also: % is scaled to controls: 0 for no effect and ±100 for the full control effect; luciferase read-out
Active calls of the source: *; ? = inconclusive; . = no result given; [ ] = dose if it differs, or a comment. Unless noted, calls follow the shape of the dose curve; as a rule, active = well fitted curve in the direction sought with a large enough effect; inconclusive = small, poorly fitted or top-dose-only effect, or another doubt; inactive = no such curve, though single readings can be large; an effect the other way counts as inactive or inconclusive. Potency is read from the fitted curve at half-maximal effect. This is a random part of the collection, and some 4.5% of all compounds hit somewhere here.

SMILES	2A StopGo	LASV entry inh	RE007 growth inh	SARS PLP yeast	NS1 inh	Cruzain noTriton	Cruzain Triton	Marburg entry inh
O=C(c1cccc(S(=O)(=O)N2CCCCC2)c1)N1CCN(S(=O)(=O)c2ccc(F)cc2)CC1	-25%	-3%	0%	-1%	-6%	?	-2.2%	-19%
COc1ccccc1NC(=O)C(=O)N(c1cccnc1)C(C(=O)NC(C)(C)C)c1ccccc1 (centres undefined)	66%[activator]	?	3%	0%	5%	.	.	-6%[46.1 µM]
CC(C)CNS(=O)(=O)c1ccc(CCC(=O)NCC2CCCO2)cc1 (centres undefined)	22%	2%	-13%	-2%	-4%	-3%	-7.6%	-2%
CSc1nc(/C=C2\C=Nc3ccccc32)c(O)n1C	46%[activator]	9%	-24%	-30%	-8%	-1%	-11%	?
Cc1sc2nc(C)n(/N=C/c3ccc(O)cc3)c(=O)c2c1C	11%	23%	-3%[3.69 µM]	-2%	-1%	-1%	3.8%	-25%
CCOc1ccc(C(=O)NNC(=O)CCNC(=O)c2ccco2)cc1OC	7%	0%	-15%	4%	.	.	.	1%[46.1 µM]
CCSc1nnc(NC(=O)C2CC(=O)N(Cc3ccccc3)C2)s1 (centres undefined)	0%	11%[46.1 µM]	-15%	-1%	.	.	.	9%[46.1 µM]
COc1cccc(C2CC3C(=O)C=CC2N3Cc2ccccc2)c1 (centres undefined)	?	-16%	-14%	1%	-34%	16%	-4.4%	?
CCOC(=O)N1CCN(Cc2nnc(-c3cccc(Br)c3)o2)CC1	-28%	.	4%	-2%	-6%	.	.	.
CCOc1cc(-c2cn(S(=O)(=O)c3cccc4nsnc34)nc2N)cc(OCC)c1OCC	-10%	3%	15%	5%	14%	-20%	-4.2%	-13%
Cc1occc1C(=O)N/N=C/c1cccnc1	0%	?	-3%	-11%	4%	-5%	-1.1%	-1%
CCOC(=O)N1CCN(Cc2nc3cc([N+](=O)[O-])ccc3n2C(C)C)CC1	?	2%[46.1 µM]	.	.	.	16%	-7.2%	4%[46.1 µM]
CCOC(=O)C1=C(CNC2CCCCC2)NC(=O)NC1c1cc(C)ccc1C (centres undefined)	?	-7%	-5%	-7%	9%	2%	-2.0%	?
O=S(=O)(Nc1cccc(-n2cnnn2)c1)c1cccc(Cl)c1	22%	-4%[46.1 µM]	-10%	-4%	5%	.	.	-16%[46.1 µM]
O=C1Nc2ccccc2C12OCC(COc1ccc(Cl)cc1)O2 (centres undefined)	?	-6%	40%	-3%	-60%	-11%	-4.5%	-7%[46.1 µM]
CN(CC(=O)Nc1c(Cl)cccc1Cl)C(=O)CNC(=O)c1ccc2ccccc2c1	-24%	-29%	8%	-3%	.	.	.	0%
CCn1nnc(NC(=O)c2ccco2)n1	32%[activator]	.	-8%	5%	7%	.	.	11%[46.1 µM]
COc1cc2c(cc1OC)C(c1ccc([N+](=O)[O-])cc1)N(C(C)=O)CC2 (centres undefined)	20%	-19%[46.1 µM]	1%	-2%	-1%	.	.	?
COCCCNc1nc2c(c(=O)[nH]c(=O)n2C)n1CC(O)COc1ccccc1C (centres undefined)	-17%	.	-6%	1%	5%	12%	-0.2%	.
Cc1ccc(OCC(=O)Nc2ccc3nc(SCC(N)=O)sc3c2)cc1	2%	17%[46.1 µM]	.	.	.	-12%	-1.7%	14%[46.1 µM]
COC(=O)c1ccc(Oc2cc(C)nc(-n3nc(C)cc3C)n2)cc1	-26%	-29%	-6%	-5%	-84%	1%	2.1%	?
Cc1cc([N+](=O)[O-])nn1CC(=O)Nc1nc2ccccc2s1	-5%	3%[46.1 µM]	12%	0%	.	.	.	4%[46.1 µM]
CCn1ccnc1CN(C)C(=O)C1CCC(=O)N(Cc2cccc(C(F)(F)F)c2)C1 (centres undefined)	-7%	5%	5%	-1%	23%	.	.	26%
COc1ccc(F)cc1C(=O)C1CCCN(Cc2cnc(C)s2)C1 (centres undefined)	-18%	.	1%	-2%	-4%	.	.	.
O=S(=O)(c1ccc2ccccc2c1)n1cccn1	10%	.	6%	3%	4%	.	.	.
CC1CCCCN1c1c(S(=O)(=O)c2ccc(Cl)cc2)cnc2ccccc12 (centres undefined)	?	.	.	.	.	1%	-5.0%	-29%[46.1 µM]
O=[N+]([O-])c1cccc(S(=O)(=O)N2CCC(c3nc(-c4ccncc4)no3)CC2)c1	-21%	-4%	17%	11%	2%	-5%	0.4%	15%
O=C(O)/C=C/C(=O)Nc1ccc(-n2nccc2C(F)(F)F)cc1	10%	1%	-28%	-1%	7%	.	.	-11%[46.1 µM]
CN(c1cccc(NC(=O)CN(c2ccc(C34CC5CC(CC(C5)C3)C4)cc2)S(C)(=O)=O)c1)S(C)(=O)=O	.	7.3µM*	9%	-1%	?	?	-0.4%	18µM*
O=C(NCc1cccnc1)C1CCN(S(=O)(=O)c2cc(Cl)ccc2Cl)CC1	33%	?	-9%	6%	8%	.	.	?
COc1ccc(C2CC(c3ccccc3)=NN2C(=O)COC(=O)/C=C/c2ccc(O)c(OC)c2)cc1 (centres undefined)	0%	.	-8%	-1%	17%	.	.	.
COc1ccc(S(=O)(=O)N2CCOC23CCN(S(C)(=O)=O)CC3)cc1	-11%	-13%	0%	-1%	.	.	.	?
COc1cccc(C(=O)NC(Cc2ccccc2)c2ccc3c(c2)OCCCO3)c1 (centres undefined)	2%	?	0%	4%	-4%	?	-2.0%	?
O=C(COC(=O)C1CC(O)CN1C(=O)Oc1ccccc1)c1ccc(Br)cc1 (centres undefined)	-22%	-3%	-9%	?	4%	?	-4.1%	-3%
C=CCNc1nnc(SCC(=O)N2CCC(C(N)=O)CC2)s1	-27%	-5%	-1%	0%	.	.	.	3%
CCc1cccc(NC(=O)Cn2c(=O)n(CCCCCC(=O)NCc3ccc(F)cc3)c(=O)c3sccc32)c1	?	0%[46.1 µM]	.	.	.	-23%	-1.8%	?
CCCSC1=C(C#N)C(c2ccc(OC)cc2)C2=C(CC(C)(C)CC2=O)N1 (centres undefined)	1%	-24%	12%	1%	5%	3%	1.0%	-10%
CCOc1ccc(-n2cc(C(=O)Nc3cccc(C)n3)c3cc(OC)c(OC)cc3c2=O)cc1	-25%	1%	0%	.	-35%	.	.	?
CCOc1ccc(/C(O)=C2/C(=O)C(=O)N(c3ccccn3)C2c2ccc(C)cc2)c(C)c1 (centres undefined)	-14%	?	0%	1%	6%	.	.	3%[46.1 µM]
Cc1sc2ncn(CC(=O)NCCCOC(C)C)c(=O)c2c1S(=O)(=O)N1CCN(c2ncccn2)CC1	0%	-10%[46.1 µM]	4%	-2%	.	.	.	-2%[46.1 µM]
Cc1nnc(SCC(=O)N(C)c2ccccc2)n1-n1cccc1	-5%	4%	3%	2%	.	.	.	4%
CCN1CCN(c2nc3sc4c(c3c(=O)n2-c2ccc(OC)cc2)CCCCC4)CC1	-8%	-4%	5%	-2%	0%	6%	-4.6%	?
NS(=O)(=O)c1ccc(N/N=C/c2cn(-c3ccccc3)nc2-c2ccccc2)c([N+](=O)[O-])c1	-29%	.	-6%	0%	0%	.	.	.
O=C(Nc1ccccc1Cl)C1CCCN1C(=O)OCc1ccccc1 (centres undefined)	5%	.	-6%	3%	-16%	.	.	.
CCc1nc(C)cn1S(=O)(=O)c1cc(Cl)c(OC)cc1Cl	-11%	?	42%	-1%	-53%	-1%	9.9%	?
O=C(NCC1CCCO1)C1c2ccccc2C(=O)N1C1CCCCCC1 (centres undefined)	-6%	-8%	-4%	1%	-2%	-8%	1.6%	4%
CCCCNS(=O)(=O)/C=C/c1ccccc1	91%[activator]	4%	-10%	-6%	-2%	-5%	-3.2%	5%
NC(N)=NCCCS(=O)(=O)Nc1ccc(Nc2c3ccccc3nc3cc([N+](=O)[O-])ccc23)cc1	-5%	7%[46.1 µM]	-21%	.	.	.	.	19%
COc1ccc(C(=O)Oc2c(C)occc2=O)cc1OC	0%	6%	1%	2%	-1%	-4%	1.0%	5%
COc1ccccc1CNC(=O)C1CCCN(c2nc3ccccc3n3cccc23)C1 (centres undefined)	-23%	22%[46.1 µM]	.	.	.	-9%	-2.5%	.

(list continues)
SMILES	2A StopGo	LASV entry inh	RE007 growth inh	SARS PLP yeast	NS1 inh	Cruzain noTriton	Cruzain Triton	Marburg entry inh
CCN(CC)S(=O)(=O)c1cccc(NC(=O)c2cc3ccccc3o2)c1	?	?	6%	-22%	2%	0%	-5.0%	9%
COc1ccc(-c2nc(CS(=O)CC(=O)NCc3ccc(Cl)cc3)c(C)o2)cc1OC (centres undefined)	-4%	3%[46.1 µM]	-22%	-2%	-7%	.	.	-6%[46.1 µM]
CN(C(=O)CC1C(=O)NCCN1CC(c1ccccc1)c1ccccc1)C(C1CC1)C1CC1 (centres undefined)	-9%	.	3%	2%	4%	.	.	-7%
CCOC(=O)CCNC(C)C1COc2ccccc2O1 (centres undefined)	-15%	12%	-2%	0%	4%	0%	3.6%	?
COc1cccc2c1OCC1COc3c(c(=O)n(C)c(=O)n3C)C21 (centres undefined)	?	-6%	9%	2%	6%	-10%	5.0%	5%
CCCc1nc(SCC(=O)Nc2ccc(N3CCOCC3)cc2)c2ccccc2n1	?	13%	9%	10%	8%	30%	-3.9%	0.71µM*
COc1cc2c(c(OC)c1OC)-c1ccc(SC)c(=O)cc1C(NC(=O)C(F)(F)F)CC2 (centres undefined)	?	.	0%	.	.	.	.	.
Cc1ccc(CN(Cc2ccccn2)C(=O)Nc2ccc(C)c(C)c2)cc1	-5%	?	-3%	-2%	-9%	.	.	?
O=C(O)C1(S(=O)(=O)CCC(F)=C(F)F)CC1	-13%	-3%	5%	1%	.	.	.	?
CC(=O)Nc1ccc(C(=O)NCC(=O)OCc2ccccc2F)cc1	8%	.	-8%	1%	4%	.	.	.
